Screening results from PubChem.
Prx2 Sm inh = blocks S. mansoni peroxiredoxin 2 enzymatic activity; Potency, µM; actives 0.07% (n = 65,000); S. mansoni Prx2 activity coupled to TGR/GSH (TGR is thioredoxin glutathione reductase), NADPH fluorescence loss, qHTS; some inactives read as strong as hits; AID 448; active means full or partial inhibition curve with a strong effect at the top dose; inconclusive means weaker partial or single-point curve; inactive means no accepted curve; further: series up to 57 µM; many of its hits are not listed in these tables
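Prx2 inhibition was measured as reduced NADPH consumption when electrons flowed from NADPH through TGR and glutathione to Prx2 and H2O2. Plates were read kinetically over 8 min; enzyme reagents were held at 4 deg C during dispensing.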
Anthrax LT inh = anthrax lethal toxin internalization inhibition | actives 0.67% (n = 70,000) | Potency, µM (doses to about 40 µM), for the others: top-dose activity change, negative = inhibition, hits mostly inhibitors | AID 912 | Cells, anthrax lethal toxin internalization, FRET ratio (460/530); active = well fitted falling ratio curve with the 530 nm signal flat; inconclusive = other ratio curves, or a change in one channel alone; inactive = flat curves in the ratio and both channels; the % refers to the ratio; further: on the % scale 0 is the no-effect control and ±100 the full control effect; nearly all actives have a fitted effect of over 50% in size; tested in ME-180 cells; beta-lactamase reporter
* hit, by the source's call; & = joins results of further samples; [ ] = dose if it differs, or a comment. Potency means the concentration at half of the fitted maximal effect. This is a subset. The share of hits here may be higher or lower than overall.

Screening NC(=O)c1nsc(C(=O)N(CC(=O)NCc2ccc3c(c2)OCO3)C2CCCCC2)c1N returned Prx2 Sm inh >57 and Anthrax LT inh inconclusive.
`COC(=O)CSc1nnc(-c2ccco2)n1-c1ccc(C)cc1` gave Prx2 Sm inh >57 and Anthrax LT inh 3%.
Screening COc1ccc(C(=O)C(OC(=O)CNC(=O)c2ccco2)c2ccccc2)cc1 (centres undefined) returned Prx2 Sm inh >57 and Anthrax LT inh 6%.
For O[C@@](CCN1CCCCC1)(c1ccccc1)[C@@H]1C[C@H]2C=C[C@@H]1C2 the results were Prx2 Sm inh >57 and Anthrax LT inh 2%[3.58 µM].
Screening Oc1ccc(CNc2ccc(F)cc2)c2cccnc12 returned Prx2 Sm inh inconclusive and Anthrax LT inh -6%.
`Clc1ccccc1Nc1ncnc2c1nnn2Cc1ccccc1` gave Prx2 Sm inh >57 and Anthrax LT inh 0%.
`COc1ccc(Cl)cc1NC(=O)C1CC(=O)N(c2ccc(F)cc2)C1` (centres undefined) gave Prx2 Sm inh >57.
Nc1ncnc2c1ncn2C1CCC(CO)C(O)C1 (centres undefined) was read as Prx2 Sm inh >57 and Anthrax LT inh 6%.
Screening COc1ccc(NS(=O)(=O)c2ccc(OC)c(OC)c2)cc1OC returned Anthrax LT inh -1%.
`O=C(CSc1nc(-c2ccco2)cc(C(F)(F)F)n1)Nc1ccc2c(c1)OCO2` gave Prx2 Sm inh >57 and Anthrax LT inh inconclusive.
Screening O=C(CN1CCN(c2ccccc2)CC1)Nc1nccs1 returned Prx2 Sm inh >57 and Anthrax LT inh -6%.
Screening O=C(NCc1ccc(Cl)cc1)c1cc2c(nc3sccn32)s1 returned Prx2 Sm inh >57 and Anthrax LT inh -10%.
`COCCN(CCOC)c1nc(C)nc2c1nc(-c1ccccc1)n2CCN(C)C` gave Anthrax LT inh -10%.
For COc1ccc(OCCCON2C(=O)c3ccccc3C2=O)cc1 the results were Prx2 Sm inh >57 and Anthrax LT inh 8%.
O=C(Nc1ccon1)C(Sc1ccccc1)c1ccccc1 (centres undefined) was read as Prx2 Sm inh >57 and Anthrax LT inh inconclusive.
ONC=Nc1cccc2nonc12 was read as Prx2 Sm inh >57 and Anthrax LT inh inconclusive.
Screening CCCOc1ccc(Cc2nc(N)nc(N)n2)cc1 returned Prx2 Sm inh >57 and Anthrax LT inh -7%.
For COCCn1c(CN2CCN(c3ccccc3)CC2)nc2c1c(=O)n(C)c(=O)n2C the results were Prx2 Sm inh >57 and Anthrax LT inh -10%.
Screening CCCCCCCC/C=C\CCCCCCCC(=O)N[C@@H](CO)Cc1ccc(O)cc1 returned Prx2 Sm inh >57 and Anthrax LT inh inconclusive.
`COc1ccc(CNC(=O)Nc2cccs2)cc1OC` gave Prx2 Sm inh >57 and Anthrax LT inh -21%.

A stretch taken from the entries so far:
Screening O=C(CN1CCN(c2ccccc2)CC1)Nc1nccs1 returned Prx2 Sm inh >57 and Anthrax LT inh -6%.
Screening O=C(NCc1ccc(Cl)cc1)c1cc2c(nc3sccn32)s1 returned Prx2 Sm inh >57 and Anthrax LT inh -10%.
`COCCN(CCOC)c1nc(C)nc2c1nc(-c1ccccc1)n2CCN(C)C` gave Anthrax LT inh -10%.
For COc1ccc(OCCCON2C(=O)c3ccccc3C2=O)cc1 the results were Prx2 Sm inh >57 and Anthrax LT inh 8%.
O=C(Nc1ccon1)C(Sc1ccccc1)c1ccccc1 (centres undefined) was read as Prx2 Sm inh >57 and Anthrax LT inh inconclusive.

More results follow:
Screening Cc1cc(C)c2c(CN3CCN(CCO)CC3)cc(=O)oc2c1 returned Prx2 Sm inh >57.
Screening CC(=O)c1ccc(OCC(O)CN2CCCC(C)C2)cc1 (centres undefined) returned Prx2 Sm inh >57 and Anthrax LT inh 9%.
For CCOCCCn1cnc2c(c1=O)c1nc3ccccc3nc1n2-c1ccccc1 the results were Prx2 Sm inh >57 and Anthrax LT inh -6%.
Nc1nnc(SCc2coc(-c3ccc(Cl)cc3)n2)s1 was read as Prx2 Sm inh >57 and Anthrax LT inh 1%.
For CO[C@H]1COC(=O)[C@H]2CCCN2C(=O)[C@@H](C)COC(=O)C/C=C\[C@@H]1C the results were Anthrax LT inh -8%[1.6 µM].
Cc1nc2c(nnn2Cc2ccccc2)c(=O)n1-c1ccccc1 was read as Prx2 Sm inh >57 and Anthrax LT inh -15%.
For CCOC(=O)C(C)NC(=O)C(NC(=O)C1CCC(CC)CC1)C(C)C (centres undefined) the results were Anthrax LT inh 10%.
CCOC(=O)c1cccc(NC(=O)CCc2c(C)nc3ncnn3c2C)c1 was read as Prx2 Sm inh >57 and Anthrax LT inh 7%.
CCOc1ccc(C(=O)NCc2cccs2)cc1 was read as Prx2 Sm inh >57 and Anthrax LT inh -7%.
O=C(c1ccccc1)c1cncc(Br)c1 was read as Prx2 Sm inh >57 and Anthrax LT inh -11%.
For Cc1oc2cc(O)cc(O)c2c(=O)c1-c1ccc2c(c1)OCCCO2 the results were Prx2 Sm inh >57 and Anthrax LT inh -9%.
`CCOC(=O)c1[nH]c(C)c(C(=O)Nc2ccc(C)c(C)c2)c1C` gave Prx2 Sm inh >57 and Anthrax LT inh inconclusive.
For Cc1cc(C)c2c(CC(=O)NCc3ccco3)coc2c1 the results were Prx2 Sm inh >57 and Anthrax LT inh inconclusive.
Screening COc1nc(N(C#N)CC(N)=O)nc(N2CCCC2)n1 returned Prx2 Sm inh >57 and Anthrax LT inh 0%.
Screening COc1ccc(Cl)cc1N1CCN(CCNC(=O)Nc2ccccc2C)CC1 returned Prx2 Sm inh >57 and Anthrax LT inh inconclusive.
CCCCN(CCCNC(=O)C1CCCN(S(=O)(=O)CC)C1)Cc1ccccc1 (centres undefined) was read as Prx2 Sm inh >57 and Anthrax LT inh 0%.
CCCCCn1c(=O)c(C(=O)OCC)c(O)c2ccccc21 was read as Anthrax LT inh 6%.
Screening Cc1oc(-c2cccc(Cl)c2)nc1CN1CCC(C(=O)N2CCN(c3ccccn3)CC2)CC1 returned Prx2 Sm inh >57 and Anthrax LT inh -17%.
Cc1noc(C)c1C(=O)N1CCC2(CC1)CCN(c1cccc(-c3ccccc3)c1)CC2 was read as Prx2 Sm inh >57 and Anthrax LT inh 1%.
`O=C(Oc1ccc(-c2nnco2)cc1)N1CCOCC1` gave Prx2 Sm inh >57 and Anthrax LT inh 11%.
`Cc1cccc(CNc2nc(-c3ccc(C(=O)N(C)C)cc3)nc3ccccc23)c1` gave Prx2 Sm inh >57 and Anthrax LT inh -23%.
For CC(C)(C)NC(=O)CSc1nnnn1C(C)(C)C the results were Prx2 Sm inh >57 and Anthrax LT inh 11%.
Screening CCN(CC)c1ccc2cc(C(=O)Nc3ccc(-n4cnnn4)c(OC)c3)c(=O)oc2c1 returned Prx2 Sm inh >57 and Anthrax LT inh inconclusive.
Screening C1CCC2OC2C1 (centres undefined) returned Anthrax LT inh -2%.
For O=c1c2ccccc2nc(-c2ccccc2)n1-n1cccc1 the results were Prx2 Sm inh >57 and Anthrax LT inh -20%.
Screening COC(=O)c1[nH]c2ccc(C)cc2c1NC(=O)C(C)N1CCN(C2CCCCC2)CC1 (centres undefined) returned Prx2 Sm inh >57 and Anthrax LT inh -8%.
Screening O=C(CN1C(=O)c2ccccc2C1=O)N1CCN(c2nnc(-c3ccccc3)c3ccccc23)CC1 returned Prx2 Sm inh >57 and Anthrax LT inh -7%.
`O=C(c1ccco1)N1CCN(c2ncnc3c(-c4ccccc4)nsc23)CC1` gave Prx2 Sm inh >57 and Anthrax LT inh inconclusive.
`O=C(NCCCN1CCN(Cc2ccccc2)CC1)c1nnc(Cc2c(F)cccc2Cl)o1` gave Prx2 Sm inh >57 and Anthrax LT inh -23%.
Screening COC(=O)C1=CNC=C(C(=O)OC)C1c1ccc(Cl)cc1 returned Anthrax LT inh inconclusive.
Screening CCOC(=O)c1ccc(N2C(=O)c3n[nH]c(C)c3C2c2ccc(OC)cc2OC)cc1 (centres undefined) returned Prx2 Sm inh >57 and Anthrax LT inh inconclusive.
`CCC(C)Cn1c(S(=O)(=O)O)nc2ccccc21` (centres undefined) gave Prx2 Sm inh >57 and Anthrax LT inh -9%.
`COc1ccc(-n2nc(C(F)(F)F)cc2-c2ccc(Cl)cc2)cc1` gave Prx2 Sm inh >57 and Anthrax LT inh inconclusive.
For CC(=O)Nc1ccc(S(=O)(=O)N2CCCN(S(=O)(=O)c3ccc(NC(C)=O)cc3)CC2)cc1 the results were Prx2 Sm inh >57 and Anthrax LT inh 10%.
For COc1cc(C(=O)NCCC(=O)NCCCN2CCCCC2C)cc(OC)c1OC (centres undefined) the results were Prx2 Sm inh >57 and Anthrax LT inh 12%.
COc1ccc(Cl)cc1N1CC(c2nc3ccccc3[nH]2)CC1=O (centres undefined) was read as Prx2 Sm inh >57 and Anthrax LT inh -3%.
Screening O=S(=O)(c1ccc(OCC(O)CN2CCC(Cc3ccccc3)CC2)cc1)N1CCOCC1 (centres undefined) returned Prx2 Sm inh >57 and Anthrax LT inh -8%.
`COc1ccc(Br)cc1C1CC(=O)N2CN(Cc3ccccc3)CSC2=C1C#N` (centres undefined) gave Prx2 Sm inh >57 and Anthrax LT inh inconclusive.
For CC(C)OCCCNC(=O)c1ccncc1 the results were Prx2 Sm inh >57 and Anthrax LT inh -5%.
CCc1cc(=O)oc2cc(C)cc(OC(C)C(=O)O)c12 (centres undefined) was read as Prx2 Sm inh >57 and Anthrax LT inh -5%.

Fetched by compound from the entries so far:
Screening O=S(=O)(c1ccc(OCC(O)CN2CCC(Cc3ccccc3)CC2)cc1)N1CCOCC1 (centres undefined) returned Prx2 Sm inh >57 and Anthrax LT inh -8%.
For COCCn1c(CN2CCN(c3ccccc3)CC2)nc2c1c(=O)n(C)c(=O)n2C the results were Prx2 Sm inh >57 and Anthrax LT inh -10%.
Screening Cc1cc(C)c2c(CN3CCN(CCO)CC3)cc(=O)oc2c1 returned Prx2 Sm inh >57.
`O=C(CSc1nc(-c2ccco2)cc(C(F)(F)F)n1)Nc1ccc2c(c1)OCO2` gave Prx2 Sm inh >57 and Anthrax LT inh inconclusive.

Other results follow.
CN(C)CCOC(=O)COc1ccc(Cl)cc1 was read as Prx2 Sm inh >57&>57 and Anthrax LT inh inconclusive.
`COc1ccc2[nH]c(=O)c(CN(C(=O)c3cccnc3)c3ccccc3OC)cc2c1` gave Prx2 Sm inh >57 and Anthrax LT inh 6%.
`COCCNC(=O)c1c(NC(=O)c2ccco2)n(Cc2ccccc2)c2nc3ccccc3nc12` gave Prx2 Sm inh >57 and Anthrax LT inh inconclusive.
`CC(=O)Nc1ccc(S(=O)(=O)N2CCCN(S(=O)(=O)c3ccc(C)cc3)CC2)cc1` gave Prx2 Sm inh >57 and Anthrax LT inh 5%.
For O=C1C(=O)N(CCCN2CCOCC2)C(c2cccs2)/C1=C(/O)c1ccc2c(c1)OCO2 (centres undefined) the results were Prx2 Sm inh >57.
For O=S(=O)(CCSc1nc2ccccc2o1)c1nc2ccccc2s1 the results were Prx2 Sm inh >57 and Anthrax LT inh inconclusive.
`Cc1ccc(C(=O)O)cc1S(=O)(=O)N1CCC(C(=O)O)CC1` gave Prx2 Sm inh >57 and Anthrax LT inh -10%.
`COC(=O)c1ccccc1NC(=O)C1CC(=O)N(c2ccc(F)cc2)C1` (centres undefined) gave Prx2 Sm inh >57 and Anthrax LT inh -1%.
`CCN1CCN(C2CCN(C(C)=O)CC2)CC1` gave Anthrax LT inh 5%.
`O=C(NCC12CC3CC(C1)CC(CNC(=O)N1CCCC1)(C3)C2)N1CCCC1` gave Prx2 Sm inh >57 and Anthrax LT inh 3%.
Screening COC(=O)Cn1c(CN2CCOCC2)nc2c1c(=O)n(C)c(=O)n2C returned Prx2 Sm inh >57 and Anthrax LT inh 25%.
For Cc1c(C#N)c2ccccc2n1CC(=O)NCC1CCCO1 (centres undefined) the results were Anthrax LT inh -8%.
For Cc1ccc2c(c1)N(C(=O)CSc1nncn1C)C(C)(C)c1ssc(=S)c1-2 the results were Prx2 Sm inh >57 and Anthrax LT inh -21%.
CC(=O)N(C1=NCCCS1)c1ccccc1F was read as Prx2 Sm inh >57 and Anthrax LT inh -1%.
CC(=O)c1c(O)n(C2CCCCCC2)c(=O)[nH]c1=O was read as Prx2 Sm inh >57 and Anthrax LT inh -13%.
CN(C)c1ccc(-c2cc(N(C)Cc3ccco3)ncn2)cc1 was read as Prx2 Sm inh >57 and Anthrax LT inh -24%.
For O=C(Cn1cccc1)Nc1ccc(OC(F)(F)F)cc1 the results were Prx2 Sm inh >57 and Anthrax LT inh -9%.
Screening O=C1CC(c2cccs2)Cc2nc(NCC3CCCO3)ncc21 (centres undefined) returned Prx2 Sm inh >57 and Anthrax LT inh 1%.
For CCCCc1nnc(SCCSc2nnc(CCCC)n2N)n1N the results were Prx2 Sm inh >57 and Anthrax LT inh -10%.
Screening O=C(O)c1ccccc1Cl returned Anthrax LT inh 1%.
`Cn1c(=O)c2c(nc(NCCNC(=O)c3ccco3)n2Cc2ccc(Cl)cc2Cl)n(C)c1=O` gave Prx2 Sm inh >57.
Screening Cc1nc2nc(-c3ccco3)[nH]n2c(=O)c1Cc1ccccc1 returned Prx2 Sm inh >57.
Screening Cn1c(=O)cc(SCC(=O)N2CCC3(CC2)OCCO3)c2ccc(Cl)cc21 returned Prx2 Sm inh >57 and Anthrax LT inh 8%.
O=C(Cn1c(=O)n(Cc2ccco2)c(=O)c2ccccc21)NCC1CCCO1 (centres undefined) was read as Prx2 Sm inh >57 and Anthrax LT inh 5%.
`Cc1cccc(-n2c(CNC(=O)c3ccccc3)nnc2SCC(=O)Nc2nccs2)c1` gave Prx2 Sm inh >57 and Anthrax LT inh 14%.
